RE007 growth inh: less growth of the S. pombe RE007 Vpr strain; S. pombe RE007 Vpr strain, BacTiter-Glo ATP luminescence, 24 h; control for the full effect not named in the record; Potency, µM (top dose mostly 92.2 µM), for inactives: at the top dose activity change, negative = less growth; 360,000 compounds, 0.21% hits; AID 651644; active = well fitted falling curve with a large enough effect; inconclusive = small, poorly fitted or top-dose-only effect; inactive = no such curve, though single readings can be large or run the other way;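 also: % is scaled to controls: 0 for no effect and ±100 for the full control effect; nearly all actives have a fitted effect of over 50% in size; the assay follows cell death caused by Vpr and the record does not say whether a fall means rescue or toxicity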
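Fission yeast RE007 carrying one integrated HIV-1 vpr copy, seeded at OD 0.01 in PMG+AL medium with 23 nL pinned compound. Grown 24 h at 30 degrees; viability read by BacTiter-Glo luminescence after 5 min.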
SARS PLP yeast: inhibitors of SARS-CoV papain-like protease in yeast | S. cerevisiae expressing SARS-CoV PLpro, growth rescue; control for the full effect not named in the record | Potency, µM (highest dose often 32.9 µM), without a hit: at the top dose activity, positive = growth rescue | 330,000 compounds, 0.19% hits | AID 485353; active means well fitted rising curve with a large enough effect; inconclusive means small, poorly fitted or top-dose-only effect; inactive means no such curve, though single readings can be large or run the other way; also: 0% is about no effect; nearly all actives have a fitted effect of over 55% in size; growth read by luminescence after 48 h
StopGo reporter: lowers the luciferase signal of an FMDV 2A StopGo reporter; human cells with a luciferase reporter of 2A StopGo recoding; control for the full effect not named in the record; Potency, µM (top dose mostly 57.9 µM), for the others: at the highest dose signal change, negative = less light; 410,000 compounds, 1.2% hits; AID 1159524; active = well fitted falling curve with a large enough effect; inconclusive = small, poorly fitted or top-dose-only effect; inactive = no such curve, though single readings can be large or run the other way; tested in HEK293T cells; also: % is scaled to controls: 0 for no effect and ±100 for the full control effect; nearly all actives have a fitted effect of over 45% in size; luciferase light after 4 h
Cruzain Triton: blocks cruzain activity in presence of Triton detergent. Potency, µM, inactives show max response, negative = inhibition, usual class: inhibitors. 200,000 compounds, 0.43% hits. purified cruzain, Z-FR-AMC fluorescence, 0.01% Triton;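 also: plate controls were neutral wells for no effect and buffer without enzyme for full effect; nearly all actives have a fitted effect of over 40% in size; top concentration of the series not given in the record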
Target sequence (P25779 123-467 limits assumed): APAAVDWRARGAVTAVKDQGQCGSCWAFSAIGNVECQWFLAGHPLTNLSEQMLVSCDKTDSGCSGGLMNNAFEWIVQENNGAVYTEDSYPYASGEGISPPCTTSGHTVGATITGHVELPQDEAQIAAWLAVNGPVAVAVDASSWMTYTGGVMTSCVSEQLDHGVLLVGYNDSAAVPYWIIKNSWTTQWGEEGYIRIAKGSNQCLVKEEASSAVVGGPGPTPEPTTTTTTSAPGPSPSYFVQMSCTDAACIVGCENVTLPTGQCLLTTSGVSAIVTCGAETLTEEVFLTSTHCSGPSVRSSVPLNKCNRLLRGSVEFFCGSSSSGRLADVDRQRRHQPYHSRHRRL
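Read-out: AMC fluorescence (360 nm excitation, 450 nm emission), four reads over 2 min, first-to-third difference used. Conditions: cruzain 1.5 nM, Z-FR-AMC 2 uM, pH 5.5 acetate, 5 mM DTT, 0.01% Triton X-100.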
NS1 function inh: blocks influenza NS1 protein function | S. cerevisiae slowed by influenza A NS1, growth recovery by OD600 | Potency, µM (highest dose often 46.1 µM), without a hit: top-dose activity, positive = more growth | 270,000 compounds, 0.4% hits; active means well fitted rising curve with a large enough effect; inconclusive means small, poorly fitted or top-dose-only effect; inactive means no such curve, though single readings can be large or run the other way; also: nearly all actives have a fitted effect of over 50% in size
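S. cerevisiae expressing influenza A NS1, grown in glucose, washed, then diluted 1:100 into pH 6.0 -URA galactose medium with 23 nl compound. Growth recovery read as OD600; NS1-free strain serves as control.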
Cruzain inh noDet: inhibitors of Trypanosoma cruzi cruzain without detergent; P25779; Potency, µM, for inactives: max response, negative = inhibition, most hits filed as inhibitors; 200,000 compounds, 2.3% hits; purified cruzain, Z-FR-AMC fluorescence, no detergent;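 also: plate controls were enzyme without inhibitor for no effect and buffer without enzyme for full effect; nearly all actives have a fitted effect of over 40% in size; top concentration of the series not given in the record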
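Purified cruzain at 1.5 nM, pre-incubated 15 min with compound at room temperature in 100 mM sodium acetate pH 5.5, 5 mM DTT, 0.00005% Triton X-100. Reaction started with 2 uM Z-FR-AMC; AMC fluorescence increase over 60 s gives rate.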
MARV entry inh: Marburg virus entry inhibition; AID 540276; Marburg virus pseudotyped entry inhibition, cell reporter; control for the full effect not named in the record; about a third of the inactives were read at about 46 µM; Potency, µM (series often up to 37.8 µM), without a hit: at the top dose activity change, negative = inhibition, most hits filed as inhibitors; 300,000 compounds, 1.8% hits; active = well fitted inhibition curve with a large enough effect; inconclusive = small, poorly fitted or top-dose-only effect, or effect the other way; inactive = flat fitted curve, though single readings scatter; tested in HEK293 cells; about a fifth of its hits are not listed in these tables; also: % is scaled to controls: 0 for no effect and ±100 for the full control effect; luciferase read-out
Lassa entry inh: inhibitors of Lassa virus binding or cell entry; 300,000 compounds, 1.2% hits; AID 540256; Potency, µM (highest dose often 37.9 µM), for inactives: at the top dose activity change, negative = inhibition, hits mostly inhibitors; Lassa virus pseudotype entry inhibition, cell reporter; control for the full effect not named in the record; active means well fitted inhibition curve with a large enough effect; inconclusive means small, poorly fitted or top-dose-only effect, or effect the other way; inactive means flat fitted curve, though single readings scatter; tested in HEK293 cells; also: % is scaled to controls: 0 for no effect and ±100 for the full control effect; nearly all actives have a fitted effect of over 50% in size; luciferase read-out
* hit, by the source's call; ? = inconclusive; . = no result given; & = joins results of further samples; [ ] = dose if it differs, or a comment. Unless noted, calls follow the shape of the dose curve; as a rule, active = well fitted curve in the direction sought with a large enough effect; inconclusive = small, poorly fitted or top-dose-only effect, or another doubt; inactive = no such curve, though single readings can be large; an effect the other way counts as inactive or inconclusive. Potency is read from the fitted curve at half-maximal effect.

SMILES	RE007 growth inh	SARS PLP yeast	StopGo reporter	Cruzain Triton	NS1 function inh	Cruzain inh noDet	MARV entry inh	Lassa entry inh
C#CCN1C(=O)C2(C(C#N)=C(N)OC(C)=C2C(=O)OCc2ccccc2)c2ccccc21 (configuration not stated)	-2.6%	1.4%	-13.5%	-7.5%	-3.0%	25.7%	14.5%	-17.6%
O=C(C1CCN(S(=O)(=O)c2cccc3nsnc23)CC1)N1CC=C(c2ccccc2)CC1	-4.7%	5.4%	?	0.0%	11.0%	?	?	?
O=C(CCCCCN1C(=O)c2ccccc2C1=O)Oc1ccc2c3c(c(=O)oc2c1)CCC3	-21.4%	2.1%	-21.4%	-7.7%	2.8%	-2.9%	17.1%	3.4%
CCOc1cccc(NC(=O)C2CCCN(S(=O)(=O)c3ccc(OC)cc3)C2)c1 (configuration not stated)	4.3%	-3.1%	0.0%	2.0%	3.8%	-4.1%	-1.9%	?
Cc1oc(C(=O)Nc2ccc(O)cc2)cc1COc1ccccc1	29.3%	-7.6%	15.9%	-6.8%	-3.8%	-13.4%	?	20µM*
O=C(CCC(=O)NNC(=O)COc1ccc(Br)cc1)NCc1ccccc1	-1.5%	-1.0%	5.8%	.	0.5%	.	?	7.7%
O=C(NC1CCCCC1)C(c1ccc2ncccc2c1)N(Cc1ccc(F)cc1)C(=O)c1ccc2c(c1)OCCO2 (configuration not stated)	12.4%	-3.0%	.	-1.2%	24.1%	0.2%	?	-22.0%
O=C(CN1CCCN(Cc2ccc(F)cc2Cl)C1=O)NC1CCCCCC1	-6.0%	5.1%	-11.8%	4.6%	-1.3%	-4.1%	12.1%	6.2%
O=C(O)c1ccccc1S(=O)(=O)NCC(O)COc1ccc(Br)cc1 (configuration not stated)	14.6%	22.2%	-7.1%	1.6%	1.7%	6.3%	10.8%&10.8%	19.1%
N#Cc1ccccc1NC(=O)Nc1ccccc1	0.6%	0.0%	15.5%	.	-3.1%	.	14.0%[46.1 µM]	-1.0%
O=C(NCc1ccco1)c1ccc(C(F)(F)F)cc1	-1.8%	-9.3%	1.4%	.	.	.	22.2%[46.1 µM]	-1.3%[46.1 µM]
CCOc1ccc(-c2cc(CCCC(=O)NCc3ccc(C)cc3)no2)cc1	-7.0%	-1.5%	-11.6%	-1.0%	-2.9%	-0.8%	.	.
O=C(O)CCCn1cc(NC(=O)c2ccc(F)cc2)cn1	-6.3%	0.5%	0.1%	.	4.0%	.	-0.4%[46.1 µM]	-1.0%
COc1ccccc1C(=O)C1CCCN(C(=O)c2cccc(-n3cccn3)c2)C1 (configuration not stated)	-2.1%	1.1%	27.2%	.	-1.6%	.	.	.
C=CCN(CC=C)C(=O)C1CCN(S(=O)(=O)c2ccc(N3CCCC3=O)cc2)CC1	27.9%	0.0%	-18.5%	.	-8.4%	.	.	.
CCOc1cc(C(=O)N2CC(=O)Nc3ccc(C)cc3C2c2ccccc2)cc(OCC)c1OCC (configuration not stated)	.	.	-8.8%	-4.7%	.	?	?	21.2%[46.1 µM]
COc1ccccc1/C=N/NC(=Nc1ccc(C)cc1)c1nc2ccccc2s1	.	0.9%	.	-1.9%	10.7%	-19.1%	5.8%	.
COc1ccc(C(=O)NCC(=O)OCC(=O)N2CCc3ccccc32)cc1	3.9%	-3.1%	5.4%	.	.	.	-23.4%[14.2 µM]	7.3%
CC1=CC(C)(C)NC(=S)N1c1cccc(C)c1	-7.6%&-16.3%	?	1.2%	6.8%	1.6%	-0.5%	6.9%[46.1 µM]	?
O=C(CN(C(=O)CNS(=O)(=O)c1ccc(F)cc1)c1cccc(F)c1)NCC1CCCO1 (configuration not stated)	18.5%	-5.7%	11.0%	.	3.2%	.	-23.2%[46.1 µM]	2.0%[46.1 µM]
Cc1cc(NC(=O)CCC(=O)N(Cc2ccco2)C(C(=O)NCC2CCCO2)c2ccncc2)no1 (configuration not stated)	8.2%	0.0%	3.6%	.	-4.3%	.	-1.3%[46.1 µM]	-1.3%
CCOC(=O)c1coc(C(=O)OCC)c1C(=O)OCC	0.7%	.	-7.0%	.	.	.	18.6%[46.1 µM]	-2.4%[46.1 µM]
Cc1ccc(C(=O)N/C(=C\c2ccccc2)C(=O)OCc2ccccc2)cc1	-18.9%	-38.7%	76.2%[activator]	?	1.4%	-19.6%	-5.7%	-7.7%
Cc1ccc(N2C(=O)[C@@H]3[C@H](C2=O)C2c4ccccc4C=CN2[C@@H]3C(=O)c2ccco2)c(C)c1 (some centres not stated)	-4.3%	-8.6%	7.4%	-5.0%	-35.9%	-19.1%	?	-17.1%
CC12CCCC[C@@H]1CCC1C2CCC2(C)C1CC[C@@]2(O)CNCCO (some centres not stated)	-16.4%	-3.3%	-10.8%	.	2.6%	.	-3.6%[46.1 µM]	?
O=C(NCC1CCCN(C2Cc3ccccc3C2)C1)c1cccs1 (configuration not stated)	-14.8%	3.8%	-23.3%	.	13.4%	.	.	.
COC(=O)c1ccc2c(c1)N(C)CCS2	-1.0%	18.3%	-4.6%	-2.2%	-6.6%	-7.2%	.	.
CCOC(=O)N=Nc1c(O)n(CC(=O)OC)c2ccccc12	-2.2%	-2.1%	-4.9%	.	.	.	5.4%[46.1 µM]	16.7%
C=CCn1c(=N)c(C(=O)NCCCOC)cc2c(=O)n3cccc(C)c3nc21	0.4%	-3.6%	0.0%	31.6µM*	?	?	?	-1.6%
COc1ccc(OC)c(CCNC(=O)C(C)n2nc(C)c3c(C)n(-c4ccc(C)cc4)nc3c2=O)c1 (configuration not stated)	11.1%	0.0%	3.55µM*	-1.9%	0.4%	-8.5%	.	-15.7%[46.1 µM]
Cc1csc(=NC(=O)c2ccccc2)n1C	-15.7%	-59.5%	0.0%	-3.4%	-10.1%	1.4%	17.2%	-18.1%
CC1(C)CC(=O)C2=C(C1)NC(=O)CC2C(=O)NCc1ccc(F)cc1 (configuration not stated)	.	9.9%	.	8.1%	-5.3%	9.0%	.	.
CC(O)(c1ccccc1)C(c1ccccc1)C1CCCCN1 (configuration not stated)	3.4%	0.4%	-17.5%	.	-0.7%	.	.	.
Cc1ccc(CNC(=O)CCC(=O)N2CC(C)Oc3ccc(Cl)cc32)cc1 (configuration not stated)	-7.5%	-6.5%	0.0%	.	-38.2%	.	.	.
O=C(CN(Cc1ccccc1Cl)C(=O)c1csnn1)NC1CCCC1	10.2%	2.7%	-15.3%	.	0.9%	.	16.7%[46.1 µM]	-4.8%
C=CCn1c(-c2ccccc2)cc(SC)c(C#N)c1=O	12.7%	0.2%	-22.7%	.	.	.	-25.6%[46.1 µM]	-19.1%
CCC1Sc2ccccc2N(CC(=O)NCc2ccccc2OC)C1=O (configuration not stated)	-6.0%	-2.1%	25.7%	0.0%	1.0%	7.7%	15.7%	1.8%
O=C1CSC(=S)N1/N=C/c1c(F)cccc1F	-19.2%	0.6%	16.4%	.	11.1%	.	16.0%[46.1 µM]	12.8%[46.1 µM]
O=C(Oc1cncc(Cl)c1)c1sccc1Cl	?	.	-7.5%	.	.	.	-6.2%[46.1 µM]	?
Cc1nn(C)c2c1c(-c1ccccc1)cc(=O)n2CC(=O)NC(C)c1ccccc1 (configuration not stated)	.	.	-16.9%	-5.0%	.	-12.4%	.	-10.0%[46.1 µM]
CC(=O)c1cccc(NC(=O)N2CCCC2C(=O)Nc2ccccc2C)c1 (configuration not stated)	-15.5%	1.2%	-0.8%	0.7%	-4.9%	2.9%	6.0%	-10.1%
CCOC(=O)c1ccc(NC(=O)CC2Nc3cccc4cccc(c34)NC2=O)cc1 (configuration not stated)	.	.	-26.2%	-9.8%	.	-4.5%	-29.3%[46.1 µM]	19.6%[46.1 µM]
Cc1ccc(-c2cc(C(=O)Oc3ccccc3Cl)no2)cc1C	.	.	1.6%	-6.0%	.	1.0%	5.7%[46.1 µM]	-18.2%[46.1 µM]
CCOc1ccc(CNC(=O)c2ccc(NC(=O)N3CCCCc4ccccc43)cc2)cc1OC	.	.	-14.3%	-1.8%	.	0.2%	.	-12.9%[46.1 µM]
CCN(CC)Cc1cc(CCNC(=O)c2ccc(Cl)cc2)ccc1O	2.5%	10.5%	9.1%	1.2%	2.9%	-25.2%	?	-2.4%
COc1ccc(OC(=O)CN2C(=O)C3C4CCC(C4)C3C2=O)cc1 (configuration not stated)	.	-13.0%	-14.9%	1.9%	-11.1%	-1.5%	?	28.6%
Cc1cc(N/N=C/c2cccc(F)c2)nc(NCc2ccccc2)n1	2.2%	0.0%	5.8%	.	-53.6%	.	15.8µM*	?
CC(=O)N(c1ccc(C)cc1)c1nc(C)cc(C)c1C#N	3.9%	2.7%	3.2%	.	-1.8%	.	-10.9%[46.1 µM]	-16.8%[46.1 µM]
Fc1ccc(N2CCN(Cc3cn[nH]c3-c3ccccc3)CC2)cc1	-3.5%	0.0%	?	.	3.0%	.	?	?
CCOc1ccc(CN2C(=O)c3ccccc3Sc3ccc(C(=O)NCCc4ccccc4)cc32)cc1	.	.	7.2%	-5.6%	.	?	?	?
S=C(NCc1ccco1)N1CCN(Cc2ccc(Cl)cc2Cl)CC1	-13.4%	-4.1%	?	1.4%	-51.9%	7.4%	-21.2%	-6.8%
CCOC(=O)c1cc2c(ccn2C)n1CC(=O)N1CCN(c2ccc(F)cc2)CC1	0.6%	12.0%	-9.9%	-1.8%	21.0%	12.8%	5.0%	-8.6%
C[C@@H]1C(=O)O[C@H]2C[C@@]34[C@H]5C[C@@H](C(C)(C)C)[C@]36[C@@H](OC(=O)[C@@H]6O)O[C@@]4(C(=O)O5)[C@]21O	0.4%	2.8%	18.5%	.	2.3%	.	1.6%[46.1 µM]	3.1%[46.1 µM]
O=S(=O)(Nc1c(O)ccc2ccccc12)c1ccc(F)cc1	6.3%	.	33.9%[activator]	.	.	.	?	24.0%

Screens as filed in PubChem BioAssay.
